# High-throughput results (PubChem BioAssay)
# VDR inhibitor = vitamin D3 receptor (human) inhibition | actives 0.93% (n = 400,000) | Potency, µM, inactives show max response, negative = inhibition, actives largely listed as inhibitors | AID 504847 | VDR-SRC2-3 peptide fluorescence polarization, 2 h | P11473; active means well fitted inhibition curve with a large enough effect; inconclusive means small, poorly fitted or top-dose-only effect, or another doubt; inactive means no such curve, though single readings can be large or run the other way; further: series mostly up to about 120 µM
# Target sequence (P11473 whole entry, looked up): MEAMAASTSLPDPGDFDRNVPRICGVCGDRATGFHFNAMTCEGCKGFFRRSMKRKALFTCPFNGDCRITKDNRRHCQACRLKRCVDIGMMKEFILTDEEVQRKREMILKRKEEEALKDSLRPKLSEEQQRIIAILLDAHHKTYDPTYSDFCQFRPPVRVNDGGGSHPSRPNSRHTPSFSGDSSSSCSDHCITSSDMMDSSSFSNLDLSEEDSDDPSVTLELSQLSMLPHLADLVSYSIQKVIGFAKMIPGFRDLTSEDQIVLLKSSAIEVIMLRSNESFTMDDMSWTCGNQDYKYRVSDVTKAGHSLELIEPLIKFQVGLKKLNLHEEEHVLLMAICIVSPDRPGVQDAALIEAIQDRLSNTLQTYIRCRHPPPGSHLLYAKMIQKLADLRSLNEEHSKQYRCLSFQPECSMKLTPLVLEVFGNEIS
#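 After 23 nl compound addition and a short centrifugation, plates sat for 2 hours at ambient temperature; polarization of fluorescence then indicated loss of VDR binding to peptide SRC2-3.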
# The depositor's hits bear a star; ? = inconclusive; & = joins results of further samples. On the % scale 0 is the no-effect control and ±100 the full control effect; potency means the concentration at half of the fitted maximal effect. The list is partial; count on the stated rates, not on these rows.
VDR inhibitor	SMILES
1%	O=C(c1cc(-c2ccccc2)nc2ccccc12)N1CCN(C2CCS(=O)(=O)C2)CC1 (centres undefined)
-3%	COc1ccc(-c2cc(C(C)=O)c(C)n2CCC(=O)Nc2cc(Cl)ccc2C)cc1
-22%	CC(C)CCSc1nnc(Cn2c(=O)sc3ccccc32)n1C
16%	CC(=O)Nc1sc(C)c(C)c1CN1CCN(Cc2ccccc2)CC1
4%	CC(C)c1ccc(NC(=O)Cn2nnc(C(=O)NCc3ccc(Cl)cc3)c2N)cc1
22%	O=C(COCc1cc(-c2ccc3c(c2)OCO3)on1)Nc1cc(C(F)(F)F)ccc1Cl
0%	O=C(CCC(=O)c1ccc(Oc2ccccc2)cc1)Nc1ccc(C(=O)O)cc1
5%	CCN1CCC(CNCc2cn(-c3ccc(OC)cc3)nc2-c2ccccc2Cl)C1 (centres undefined)
4%	O=S(=O)(Nc1cccc(-c2ccc(N3CCCC3)nn2)c1)c1ccccc1C(F)(F)F
-4%	O=C(Nc1ccc2c(c1)OCO2)c1ccc(Cl)cc1Cl
25%	COc1ccccc1N1CCN(S(=O)(=O)c2ccc3c4c(cccc24)C(=O)N3)CC1
3%	CN1CCC(OC(=O)c2ccco2)CC1
-6%	O=C(NC1CCCCC1)c1ccccc1NC(=S)NC(=O)C1CC1
-10%	Cn1ncc2c(Nc3ccc(Cl)c(Cl)c3)ncnc21
6%	CC1CCCN(CCCN2C(=O)C3C(C(=O)Nc4ccc(Cl)cc4)C4C=CC3(O4)C2C(=O)NC2CCCCC2)C1 (centres undefined)
-14%	COc1cccc(NS(=O)(=O)NC(=O)c2c[nH]c3ccccc23)c1
1%	N[C@@H](Cc1ccccc1)C(=O)N1CCOCC1
-12%	C[C@H](CO)N1C[C@H](C)[C@@H](CN(C)Cc2ccccc2)Oc2c(NS(=O)(=O)c3ccc(F)cc3)cccc2C1=O
1%	CN(CC(=O)NCCN1CCOCC1)S(=O)(=O)c1ccc(F)cc1
-9%	Clc1ccc(-c2n[nH]c3c2CCC3)cc1Cl
-15%	Cc1cc(/C=C2\SC(=S)N(C)C2=O)c(C)n1-c1ccc(O)cc1
-1%	CCO/N=C(/C)c1c(O)cc(-c2ccccc2)n(-c2ccccc2)c1=O
8%	Cc1ccccc1N(C(=O)c1snc(C(N)=O)c1N)C(C(=O)NCc1ccccc1)c1ccc(O)cc1 (centres undefined)
8%	O=C(Nc1ccc(F)c(F)c1)c1ccc(=O)n(Cc2ccc(F)cc2)c1
5%	CCc1ccccc1NC(=O)c1oc(=O)c2ccccc2c1-c1ccccc1
-2%	O=C(Nc1ccc(-c2nc3ccccc3o2)cc1)c1ccc(N2CCOCC2)c([N+](=O)[O-])c1
4%	CN(C)c1ccc(Nc2ncnc3c2c(-c2ccccc2)cn3-c2cccc(Cl)c2)cc1
11%	CCOC(=O)c1c(S(=O)(=O)NC2CCN(C(=O)OCC)CC2)c(C)n(C)c1C
1%	Cc1noc(Cn2c(=O)c3cc4c(cc3n(CC(=O)Nc3cccc(Cl)c3)c2=O)OCO4)n1
-10%	O=c1oc2ccc3ccccc3c2cc1-c1nnc(Nc2cccc(C(F)(F)F)c2)s1

# Quoted from the results shown for reference:
VDR inhibitor	SMILES
1%	O=C(c1cc(-c2ccccc2)nc2ccccc12)N1CCN(C2CCS(=O)(=O)C2)CC1 (centres undefined)
-3%	COc1ccc(-c2cc(C(C)=O)c(C)n2CCC(=O)Nc2cc(Cl)ccc2C)cc1
-22%	CC(C)CCSc1nnc(Cn2c(=O)sc3ccccc32)n1C
16%	CC(=O)Nc1sc(C)c(C)c1CN1CCN(Cc2ccccc2)CC1
4%	CC(C)c1ccc(NC(=O)Cn2nnc(C(=O)NCc3ccc(Cl)cc3)c2N)cc1
22%	O=C(COCc1cc(-c2ccc3c(c2)OCO3)on1)Nc1cc(C(F)(F)F)ccc1Cl

# Further entries
VDR inhibitor	SMILES
5%	COC(=O)c1sccc1NC(=O)/C=C/c1c(Cl)cccc1Cl
-14%	COc1ccc(-c2cc3nc4n(c(=O)c3s2)CCCCC4)cc1
1%	C=CCN1C(c2ccc(OCC)cc2)=CS/C1=C(\C#N)c1nnc2n1CCCCC2
20%	CC(CNC(=O)c1ccc(CSc2nc3ccncc3n2Cc2ccccc2)cc1)c1ccccc1 (centres undefined)
24%	CCCN(CCC)CCCNC(=O)c1cn(-c2ccc(OC)cc2)c(=O)c2ccccc12
-11%	COc1ccc(-c2cc3nc(-c4ccc(Br)cc4)cc(C(F)(F)F)n3n2)cc1
-7%	COc1cccc(NC(=O)COC(=O)C2CC3CCCC(C2)C3=O)c1 (centres undefined)
-18%	Cc1ccnc2nc(C(=O)Nc3nnc(-c4ccc(Cl)cc4)o3)nn12
10%	CC(O)c1cc2c(cc1NC(=O)c1cnn3c1NC(c1ccco1)CC3C(F)(F)F)OCO2 (centres undefined)
-18%	COc1ccc(CNC(=O)C(c2ccco2)N(C(=O)c2snc(C(N)=O)c2N)c2ccccc2OC)cc1 (centres undefined)
-1%	c1ccc(CSc2nnnn2-c2ccc3c(c2)OCCO3)nc1
27%	O=C(NCCc1nc2ccccc2[nH]1)c1ccc(Br)o1
-3%	CC(C)OC(=O)/C(C#N)=C/c1cn(C)c2ccccc12
-2%	COc1ccc(CC(=O)NCc2n[nH]c(=S)n2-c2ccccc2)cc1
-9%	CCOC(=O)CNC(=O)CSc1nnc(-c2cccc(OC)c2)n1CC
-1%	Nc1nnn(-c2ccccc2)c1-c1ccccc1
6%	CCOC(=O)CN1C(=O)N[C@@H](c2ccccc2)[C@H](C(C)=O)[C@H]1C
9%	CN(C)C(=O)/C(=C\c1ccc(-c2cccc([N+](=O)[O-])c2)o1)NC(=O)c1ccccc1
13%	Cc1ccc(NC(=O)CN2C(=O)CCn3nc(-c4cccn4C)cc32)c(Cl)c1
-24%	O=C(O)CCC(=O)N1CCCC1
5%&-2%	Cc1nn(-c2ccc(N3CCCCC3)nn2)c(C)c1CCC(=O)Nc1cccc(F)c1
8%	O=C(O)c1ccc2c(c1)C(=O)N(NC(=O)c1ccc(O)cc1)C2=O
-1%	O=C1CCN(C(=O)Nc2ccccc2Cl)N1
2%	COc1ccc(-c2onc(C)c2C)cc1S(=O)(=O)Nc1ccc(OC(F)(F)F)cc1
7%	COC(=O)c1cc2oc3ccccc3c2n1CC(=O)Nc1ccc(C)cc1Cl
-11%	CN(CCO)c1ncnc2c1sc1nc(N3CCOCC3)c3c(c12)CCC3
-25%	Cc1ccc(-c2nnc(/C=C/c3ccccc3)o2)cc1
-11%	COCCNC(=O)CCC1CCN(Cc2cccc(-c3ccc(C)o3)c2)CC1
-15%	CCCOC(=O)c1ccc(NC(=O)C(=O)NCCN(CC)CC)cc1
-12%	NS(=O)(=O)c1ccc(N2CCOCC2)c(C(=O)NCc2ccc3c(c2)OCO3)c1
-4%	COc1ccc(-c2ccc(N(C)C)cc2)cc1C1C2C=CCC(C)C2C(=O)N1Cc1ccccc1 (centres undefined)
12%	CC(CC(=O)O)CC(=O)NNC(=O)c1cccc(Br)c1 (centres undefined)
-14%	CCCNC(=O)N1CCN(S(=O)(=O)c2ccc(C)c(C)c2)CC1
1%	CCN1C(=O)CSC1=Nc1ccc(OC)cc1
-7%	Cc1ccc(S(=O)(=O)Nc2nc3ccccc3nc2NCc2ccco2)cc1C
0%	CN(C)S(=O)(=O)c1ccc(Cl)c(NC(=O)COC(=O)CCC(=O)c2cccs2)c1
2%	Cc1c(C(=O)N/N=C/C(C)C)[nH]c2c([N+](=O)[O-])cccc12
9%	CCOC(=O)c1cnn(-c2ncnc3c2cnn3C)c1N
-11%	CCC(C)c1ccc(NC(=O)Nc2cccnc2)cc1 (centres undefined)
7%	CC(=O)Nc1ccc(S(=O)(=O)NCC2CCC(C(=O)NCCCN(C)Cc3ccccc3)CC2)cc1 (centres undefined)
-3%	C/C(=N\NC(=O)C(O)c1ccccc1)c1ccc(Cl)cc1 (centres undefined)
1%	CCOc1ccc(S(=O)(=O)N(CC(=O)N2CCc3ccccc32)Cc2ccco2)cc1
0%	Cc1ccc(S(=O)(=O)N2CCC(=O)N(CCOCc3ccc(F)cc3)CC2)cc1
8%	Cc1cc(OCC(=O)Nc2nc3c(s2)CCCC3)cc(C)c1Cl
?	COc1cccc(N2CCN(c3ccc4nnc(CCC(=O)Nc5cccc(C(C)=O)c5)n4n3)CC2)c1
1%	Cc1ccc(/C=C2/C(=O)c3ccc(C(=O)O)cc3C2=O)o1
-11%	Cc1ccc(O)c(NC(=S)NC(=O)COc2ccc(Br)cc2)c1
12%	COc1ccc(NCc2ccc([N+](=O)[O-])s2)cc1
-2%	CCCCN1CC(O)C(O)C(O)C1CO (centres undefined)
8%	O=C1C2C3C=CC(O3)C2C(=O)N1Cc1ccncc1 (centres undefined)
5%	CC/C(=N\NC(N)=O)c1ccc(OC)c(OC)c1
-7%	O=C(CN1C(=O)NC2(CCCC2)C1=O)OCCOc1ccc(Cl)cc1Cl
-5%	O=C(Nc1ccccc1N1CCN(C(=O)c2ccccc2)CC1)c1ccc(Br)o1
6%	CCCOc1ccc(C(=O)N2CCN(c3ccc(N)cc3Cl)CC2)cc1
-14%	CC(=O)c1cccc(N2C(=NC(=O)CCc3ccccc3)SC3CS(=O)(=O)CC32)c1 (centres undefined)
-11%	CC1CCCCC1NC(=O)CCCn1c(=S)[nH]c2ccccc2c1=O (centres undefined)
-5%	Cc1cc(C)n2nc(C(=O)OCC(=O)Nc3ccc(F)cc3F)nc2n1
7%	Cc1cccc(C(=O)O)c1O
12%	Cc1cccc(/C(N)=N/OC(=O)N2CCOCC2)c1
-2%	CCCNC(=O)c1cn(CC)c2cc(N3CCN(C)CC3)c(F)cc2c1=O

# Looked up one by one from the list above, three records:
VDR inhibitor	SMILES
-11%	CCC(C)c1ccc(NC(=O)Nc2cccnc2)cc1 (centres undefined)
-15%	Cc1cc(/C=C2\SC(=S)N(C)C2=O)c(C)n1-c1ccc(O)cc1
7%	Cc1cccc(C(=O)O)c1O

# In a second layout: entries from further up.
> Cc1c(C(=O)N/N=C/C(C)C)[nH]c2c([N+](=O)[O-])cccc12
- VDR inhibitor: 2%

> CCOC(=O)c1cnn(-c2ncnc3c2cnn3C)c1N
- VDR inhibitor: 9%

# More structures.
VDR inhibitor	SMILES
3%	CC(=O)NCCC(=O)N1CCCC(C(=O)c2ccc3c4c(cccc24)CC3)C1 (centres undefined)
-6%	CN1CCN(C(=O)/C=C/c2c(F)cccc2Cl)CC1
0%	COc1ccc(-c2cc(C(=O)Nc3ccc(C(N)=O)cc3)c3ccccc3n2)cc1
9%	COc1cc(Cn2c(=O)sc3ccccc32)ccc1OC(C)C
-5%	CCCN(C(=O)COC(=O)C12CCC(=O)N1c1ccccc1S2)c1c(N)n(Cc2ccccc2)c(=O)[nH]c1=O (centres undefined)
-19%	CC(C)[C@@H](CC(=O)N[C@@H]1CCNC[C@H]1C(=O)N[C@H](CC(=O)N[C@@H](CCC(=O)O)CC(=O)O)Cc1c[nH]c2ccccc12)NC(=O)C[C@H](Cc1c[nH]c2ccccc12)NC(=O)[C@@H]1CNCC[C@H]1N
16%	COC(=O)c1[nH]c2cc(OC)ccc2c1NC(=O)c1nonc1C
19%	C=CCn1c(SCC(=O)NC(C)(C)C)nnc1-c1ccccc1O
7%	OCc1nc2ccccc2n1C/C=C/c1ccccc1
3%	COc1ccc(Cl)cc1NC(=O)Nc1cn(C)nc1C
-15%	CCOc1ccc(CNC(=O)COc2cc(=O)n(C)c3ccccc23)cc1
-4%	CCC(=O)NC1CCc2cccc(OC)c2C1 (centres undefined)
-1%	Cc1cc(C)nc(SCC(=O)N/N=C/C=C/c2ccccc2)n1
19%	CCOC(=O)c1c(C)[nH]c(C)c1S(=O)(=O)N1CCCC(C(=O)NCc2ccc(C)cc2)C1 (centres undefined)
0%&21%&6%&0%	C[N+](C)(C)CCCCCCCCCC[N+](C)(C)C
-2%	CCN(CCC#N)c1ccc(N2C(=O)CCCC2=O)cc1[N+](=O)[O-]
-12%	COc1ccc(CNS(=O)(=O)c2ccc3c(c2)N(C(C)=O)CCO3)cc1
5%	O=C(Nc1ccc(Cl)cc1)Nc1ccc(C(=O)N2CCOCC2)cc1
5%	Cc1c(NC(=O)C23CC4CC(CC(Br)(C4)C2)C3)c(=O)n(-c2ccccc2)n1C
-20%	CC1(C)CC(=O)C(C(C2=C(O)CC(C)(C)CC2=O)c2cccc(O)c2)C(=O)C1 (centres undefined)
-7%	COC(=O)c1ccccc1NC(=O)c1ccc2c(c1)OCCO2
8%	Nc1nc2c(F)c(F)c(F)cc2s1
-24%	COc1cccc(C2=NN(C(=O)c3ccco3)C(c3ccco3)C2)c1 (centres undefined)
0%	O=C(c1ccc(Cl)c(Cl)c1)N(Cc1ccco1)c1ccc(O)cc1
-5%	Cc1[nH]c(=O)c(C#N)c2c1CCCC2
-12%	N#CC1=C(SCC(=O)c2ccccc2)NC2=C(C(=O)CCC2)C1c1ccco1 (centres undefined)
?	Cc1c(C)c2cc3c4c(oc3c(C)c2oc1=O)CCCC4
-18%	Cc1onc(-c2c(F)cccc2Cl)c1C(=O)OCC(=O)NCc1ccccc1
2%	O=C(/C=N/O)NCc1ccncc1
-24%	Cc1ccc(-c2noc(COc3ccc(Br)c(C)c3)n2)cc1
-12%&-11%&4%	CCCCCN=C(N)N/N=C/c1c[nH]c2ccc(OC)cc12
-15%	Clc1ccc(-c2nnc(CCc3ccccc3)o2)c(Cl)c1
-14%	COc1ccc(OC)c(S(=O)(=O)N2CCC(c3nc4ccccc4[nH]3)CC2)c1
-8%	CSc1ncccc1C(=O)Nc1ccc(OC(F)(F)F)cc1
-7%	Cc1ccccc1OC1CCN(C(=O)C2CCC(=O)N(C3CCCC3)C2)CC1 (centres undefined)
1%	CC1(C)CC(=O)C(C=NCCN2CCN(CCc3ccccc3)CC2)=C(O)C1
-8%	CCc1ccc(C(=O)COC(=O)c2cnc(C)cn2)cc1
7%	Cc1cc(C)nc(-n2ncc3c2CC(c2ccc(F)cc2)CC3=O)n1 (centres undefined)
